Source: PubChem BioAssay
CtBP-E1A blk: CtBP/E1A binding inhibition; AlphaScreen GST-E1A/His-CtBP binding, 1536-well; hits give low values; control for the full effect not named in the record; activity change, % (concentration not given with the values); hit rate 0.49% among 340,000; in the data active means activity change below about -65%; inconclusive means about -30% to -65%; inactive means above about -30%; also: % is scaled to controls: 0 for no effect and ±100 for the full control effect
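Steps: dispense buffer (Tris pH 8.0, NaCl 300 mM, TCEP 1 mM, BSA, Tween 20); add 5X protein mix (GST-E1A, His-CtBP, 125 nM each); pin 23 nL compound; 2 h at 37 °C, dark; add 5X beads (50 ug/mL); 1 h; read.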
Sfp inh: blocks B. subtilis Sfp PPTase activity; Q9F4F7; Biochemical Sfp PPTase activity, qHTS; Potency, µM, for the others: max response, negative = inhibition, actives largely listed as inhibitors; hit rate 3.5% among 310,000; AID 1490; active = well fitted inhibition curve with a large enough effect; inconclusive = small, poorly fitted or top-dose-only effect, or another doubt; inactive = no such curve, though single readings can be large or run the other way;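 also: the enzyme is Sfp with the accession as filed and its product quenches rhodamine fluorescence; potency is read from the fitted curve at half-maximal effect; 0% = enzyme reaction without inhibitor and -100% = no enzyme wells; top concentration of the series not given in the record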
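Step 1, compound plus 15 nM Sfp-PPTase, 15 min, room temperature. Step 2, add rhodamine-CoA (5 uM) and BHQ-2-YbbR (12.5 uM). Step 3, read 525/598 nm fluorescence at 0 and 30 min.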
gsp antagonist: antagonizes gsp, the McCune-Albright syndrome mutation. gsp-mutant cells, cAMP HTRF, 30 min; control for the full effect not named in the record. hit rate 0.4% among 340,000. Potency, µM (series often up to 76.9 µM), for the others: at the top dose activity change, negative = inhibition, actives largely listed as inhibitors; active = falling curve of any shape with a large fitted effect; inconclusive = falling curve, mostly with a smaller effect; inactive = flat or rising curve; cell line not stated here;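 also: intracellular cAMP measured with PDE inhibitor Ro 20-1724 present during compound exposure; potency is read from the fitted curve at half-maximal effect; % is scaled to controls: 0 for no effect and ±100 for the full control effect; nearly all actives have a fitted effect of over 65% in size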
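Measurement of cellular cAMP by homogeneous time-resolved fluorescence following a 30 min compound exposure at 37C. The PDE inhibitor […] was present throughout; the assay buffer was DPBS with 0.05% BSA and 0.005% Tween 20.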
Menin MLL FP FL: inhibitors of human menin-MLL interaction, wild-type MLL peptide | Fluorescence polarization, fluorescein-MLL peptide displacement from menin | FP activity change, % at 61.4 µM | 290,000 tested, under 10 active; inconclusive = falling polarisation curve, or a change in total fluorescence; inactive = total fluorescence flat and polarisation flat or rising; no compound was filed as active; the % refers to the polarisation; negative = inhibition;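 also: % of control where 0% means no effect; inhibitors lower the polarisation; unlabelled MLL peptide was the positive control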
ClpP mod: qHTS Assay for Activators of ClpP. ATP-dependent Clp protease proteolytic subunit (Bacillus subtilis (strain 168)), P80244. purified B. subtilis ClpP, FRET peptide cleavage, 20 min. Potency, µM (highest dose often 57.5 µM), for the others: top-dose activity change, negative = active. hit rate 1.9% among 340,000. AID 651965, 2013; active = well fitted falling curve with a large enough effect; inconclusive = small, poorly fitted or top-dose-only effect; inactive = no such curve, though single readings can be large or run the other way; also: potency is read from the fitted curve at half-maximal effect; the source files actives as falling curves though it sought activators and does not explain the sign; nearly all actives have a fitted effect of over 65% in size; many hits overshoot -100%
Target sequence (P80244 whole entry, looked up): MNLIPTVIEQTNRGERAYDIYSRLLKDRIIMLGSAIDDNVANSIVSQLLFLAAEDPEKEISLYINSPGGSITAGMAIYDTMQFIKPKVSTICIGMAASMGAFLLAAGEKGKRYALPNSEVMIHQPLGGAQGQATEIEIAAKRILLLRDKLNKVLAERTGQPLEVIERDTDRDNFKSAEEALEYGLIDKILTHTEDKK
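Buffer: 100 mM Tris/HCl pH8, 100 mM KCl, 0.05% low protease BSA, 2.5% glycerol, 0.01% Tween-20. ClpP 10 microg/mL final; 20 min RT; delta FRET normalized to ADEP and DMSO controls.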
TRPV1 potentiator: enhances activation of the human vanilloid receptor TRPV1; potentiation, % at 8.33 µM; Q8NER1; TRPV1-expressing cells, Fluo-8 calcium influx, capsaicin EC20 potentiation; host cell line not named in the record; control for the full effect not named in the record; hit rate 0.02% among 320,000; active means potentiation above 80%; inconclusive means 30% to 80%; inactive means below 30%; also: 0% is about no effect
Target sequence (Q8NER1 whole entry, looked up): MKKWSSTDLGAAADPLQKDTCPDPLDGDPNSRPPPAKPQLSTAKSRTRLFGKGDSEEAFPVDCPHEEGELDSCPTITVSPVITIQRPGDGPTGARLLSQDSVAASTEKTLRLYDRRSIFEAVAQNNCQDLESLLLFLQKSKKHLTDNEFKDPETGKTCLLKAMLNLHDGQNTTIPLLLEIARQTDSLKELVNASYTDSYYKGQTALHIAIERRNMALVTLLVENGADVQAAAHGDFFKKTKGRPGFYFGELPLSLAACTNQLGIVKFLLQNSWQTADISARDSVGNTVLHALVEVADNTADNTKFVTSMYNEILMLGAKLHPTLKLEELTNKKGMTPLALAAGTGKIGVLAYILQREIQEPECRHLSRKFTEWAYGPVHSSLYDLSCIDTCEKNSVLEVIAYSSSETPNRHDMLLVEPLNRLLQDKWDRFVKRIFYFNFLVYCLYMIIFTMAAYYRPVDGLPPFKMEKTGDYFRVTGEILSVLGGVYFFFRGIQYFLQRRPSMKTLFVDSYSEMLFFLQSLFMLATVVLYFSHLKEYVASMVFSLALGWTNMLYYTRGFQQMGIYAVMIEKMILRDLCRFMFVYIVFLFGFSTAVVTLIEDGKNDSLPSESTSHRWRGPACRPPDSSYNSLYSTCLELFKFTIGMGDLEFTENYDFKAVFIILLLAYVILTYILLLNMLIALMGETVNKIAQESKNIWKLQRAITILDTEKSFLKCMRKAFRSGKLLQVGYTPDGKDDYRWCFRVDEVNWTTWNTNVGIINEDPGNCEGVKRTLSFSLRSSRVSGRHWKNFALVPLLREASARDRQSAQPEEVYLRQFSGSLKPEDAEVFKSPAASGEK
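Fluo-8 calcium influx in TRPV1-expressing cells, kinetic read (ex 480/em 520 nm). Compound added and read 3 min for agonist activity, followed by capsaicin at EC20 final and 2 min further read for enhancement.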
gsp agonist: activates gsp, the McCune-Albright syndrome mutation; gsp mutant cells, cAMP HTRF, 30 min; control for the full effect not named in the record; Potency, µM (doses to about 76.9 µM), inactives show at the highest dose activation (cAMP increase), actives largely listed as activators; hit rate 0.13% among 340,000; active = well fitted activation curve with a large enough effect; inconclusive = small, poorly fitted or top-dose-only effect, or another doubt; inactive = no such curve, though single readings can be large or run the other way; cell line not stated here;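 also: phosphodiesterase inhibitor Ro 20-1724 added with compounds to block cAMP breakdown; potency is read from the fitted curve at half-maximal effect; nearly all actives have a fitted effect of over 60% in size; about a fifth of the inactives were tested at one dose only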
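Cells stably selected in G418 were plated at 2000/well, grown 16-24 hr, then given compounds in DMSO with the PDE inhibitor […] (300 uM solution added) for 30 min at 37C; cAMP was read by HTRF.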
An asterisk follows results filed as active; ? = inconclusive; · = not tested or not shown; & = joins results of further samples; [ ] = remark or other dose.

| molecule | CtBP-E1A blk | Sfp inh | gsp antagonist | Menin MLL FP FL | ClpP mod | TRPV1 potentiator | gsp agonist |
| --- | --- | --- | --- | --- | --- | --- | --- |
| C=C(C1=CCN(S(=O)(=O)C(C)(C)C)[C@@H]1CCO)c1ccccc1 | 4 | · | -9% | · | -0.1% | · | · |
| O=C(Nc1cccc(-n2cnnn2)c1)c1ccoc1COc1ccc(Cl)cc1 | 2 | -3% | -28% | · | 16% | 12 | ? |
| COc1cccc(CC(=O)NNC(=O)c2ccc3c(c2)OCO3)c1 | 4 | 16% | 0% | · | -2.0% | -6 | -43%[inhibitor] |
| Cn1c(=O)[nH]c(=O)c2c1nc(Sc1ccccc1)n2CCc1ccccc1 | 3 | -1% | 5% | 1.2 | -1.2% | -13 | -42%[inhibitor] |
| O=C(COc1ccccc1)NCC(=O)N/N=C/c1cccs1 | 3 | 9% | 4% | 1.0 | -1.7% | -8 | -1% |
| O=C(CSc1nc(O)c(Cc2ccccc2)c(=O)n1-c1ccccc1)N1CCOCC1 | 2 | -6% | -13% | 5.4 | -1.3% | 0 | -27% |
| O=C(CNc1ccccc1OC(F)F)N1CCc2ccccc21 | 23 | 7% | -1% | 3.5 | · | -9 | 12%[15.4 µM] |
| CC(=O)c1cccc(NC(=O)C(C)OC(=O)CCCN=C2NS(=O)(=O)c3ccccc32)c1 (stereo not given) | -6 | · | 7% | · | 2.1% | 8 | 22% |
| Cc1ccc(-n2c(N)cc(=O)nc2SCC(=O)N2CCN(c3ccccc3)CC2)cc1C | 4 | 10% | -1% | · | 1.5% | -3 | -11% |
| CC(=O)Oc1ccc(Oc2ccc(-c3noc(C)n3)cc2)cc1 | 12 | 2% | -9% | 1.9 | 0.9% | 4 | 4% |
| COCc1ccc(C(=O)NC2CCCN(Cc3ccccc3F)C2)o1 (stereo not given) | -3 | 25% | 5% | · | -0.1% | -2 | -52%[inhibitor] |
| C[Si](C)(C)n1ccnc1 | 6 | 6% | 3% | -3.5 | -0.4% | -2 | · |
| Cc1ccsc1C(=O)NCCc1ccco1 | · | · | 0% | · | -0.5% | -5 | -14% |
| CC(C)(C)/C(O)=C/c1nc2ccccc2oc1=O | -20 | -11% | -6% | 5.4 | · | 13 | -3%[15.4 µM] |
| COc1ccc(NC(=S)N2CCC(C(=O)c3ccc(OC)cc3)CC2)cc1 | 7 | 9% | -14% | -4.3 | 0.8% | -2 | -2%[15.4 µM] |
| O=C(/C=C/Nc1ccc(S(=O)(=O)Nc2cnc3ccccc3n2)cc1)c1cccnc1 | · | 21% | -8% | 4.0 | -1.4% | -3 | -51%[inhibitor] |
| Cc1ccc(CNC(=O)c2ccc(F)c(S(=O)(=O)N3CCOCC3)c2)cc1 | 4 | · | 8% | · | -1.5% | -18 | -81%[inhibitor] |
| COC(=O)CNC(=O)COC(=O)/C=C/c1cccs1 | 3 | 2% | -4% | 1.4 | · | · | -5%[15.4 µM] |
| CN[C@H]1CCc2cc(OC)c(OC)c(OC)c2-c2ccc(N(C)CC(OC)OC)c(=O)cc21 | · | 10% | 13% | 1.5 | 1.2% | 16 | ? |
| O=C(OCc1nc2ccc(Cl)cc2n1CCO)c1ccc(O)cc1 | 9 | 5% | -11% | 0.5 | ? | -5 | 26% |
| CCOC(=O)c1cc(-c2ccc(/C=C3/C(=O)N(c4ccc(C(=O)O)cc4)N=C3C)o2)ccc1Cl | 2 | -4% | ? | -21 | · | 6 | 1%[15.4 µM] |
| COc1ccc(Cc2nnc(NC(=O)CSc3ccc(C)cc3)s2)cc1OC | 7 | -25% | -1% | 16 | 0.3% | ? | 12% |
| COCc1cc(Sc2ccc(Cl)cc2)nc(C)n1 | 1 | 17% | 4% | -1.9 | -0.7% | -1 | -33%[inhibitor] |
| CCOC(=O)c1sc(=NC(=O)CCSc2ccccc2)n(C)c1C | -14 | 3% | -7% | -4.1 | -6.0% | -1 | -5%[15.4 µM] |
| O=[N+]([O-])c1ccc(CN2CCN(c3ccccc3)CC2)o1 | -15 | ? | 7% | 4.6 | · | 25 | -33%[inhibitor] |
| CCOc1ccc(NC(=O)N(C2CCCCC2)C(C)c2ccncc2)cc1 (stereo not given) | 0 | 18% | 8% | 1.0 | -1.7% | 3 | -13% |
| COc1ccc(N2CCN(CC(=O)Nc3ccc(-n4cnnn4)cc3)CC2)cc1 | 6 | 9% | 26% | 0.8 | 0.2% | 18 | -19% |
| CC(C)C[C@@H](CO)N1CCN(CCc2ccccc2)CCC1=O | 6 | 9% | 13% | 0.0 | 1.4%&0.5% | -14 | -27% |
| COc1cc(C=C(c2nc3ccccc3s2)c2nc3ccccc3s2)ccc1O | -17 | -1% | -12% | ? | · | 23 | -29% |
| CCNC(=O)N1CCOCC1 | -11 | 8% | 4% | 1.1 | -2.0% | 0 | -42%[inhibitor] |
| Cc1c(/C=N/n2cnnc2)c2ccccc2n1CCOc1ccc(Cl)cc1 | -10 | -4% | 3% | 3.7 | -1.7% | 7 | -19% |
| CC(=O)N1CCc2cc(S(=O)(=O)NC(C)c3ccccc3)ccc21 (stereo not given) | 6 | 12% | 3% | -3.4 | 1.5% | 7 | -8% |
| CCC(C)Sc1cc(-c2nc3ccccn3c2NC2CCCCC2)ccc1OC (stereo not given) | -22&-1 | · | -26% | · | 4.1%&5.0% | -12 | ? |
| Cc1c(/C(Cc2ccccc2)=N/O)c2ccccc2n1C | -11 | 13% | -8% | 1.8 | ? | 19 | 12% |
| Cc1ccc(/C(N)=N/OC(=O)c2ccc(F)cc2)cc1 | 16 | 16% | 13% | -4.9 | -1.5% | 5 | ? |
| O=C1CCC(=O)N(O)CCCCCNC(=O)CCC(=O)N(O)CCCCCNC(=O)CCC(=O)N(O)CCCCCN1 | -1 | 89µM* | 0% | -7.9 | 1.2% | -3 | · |
| Nc1ccc(S(N)(=O)=O)cc1N | ? | 10% | -22% | ? | · | 1 | 28% |
| Cc1ccccc1OCCN1C(=O)NC2(CCCc3ccccc32)C1=O (stereo not given) | -1 | 6% | -2% | 4.2 | -4.4% | 2 | -30% |
| CCCc1ccc(OCc2ccc(C(=O)Nc3cccc(C)n3)o2)c(OC)c1 | · | 19% | -5% | 1.7 | 6.7% | ? | -56%[inhibitor] |
| N#Cc1ccccc1OCC(=O)NC(=O)NCc1ccco1 | 8 | 3% | 7% | -1.7 | ? | 7 | 4% |
| Cc1ccc(NS(=O)(=O)c2ccc(F)cc2)nc1 | · | 15% | -5% | -5.3 | 4.0% | 1 | -27% |
| Cc1ccc(COc2ccc(CNCCCN3CCCCCC3=O)cc2)cc1 | 4 | -21% | 12% | -8.5 | · | 0 | -14%[15.4 µM] |
| CCSc1nnc(NC(=O)C2CCCN(S(=O)(=O)c3cnc[nH]3)C2)s1 (stereo not given) | -1 | -10% | 6% | 1.7 | -0.6% | 1 | 3% |
| Cc1cc2nc3n(c2cc1C)CC1CC(C(=O)NCc2cccc(Br)c2)N(C)C31 (stereo not given) | -1 | · | -2% | · | -1.8% | 4 | -53%[inhibitor] |
| CCC(=O)c1ccc(OCC(=O)OC(C)C(=O)N2CCc3ccccc32)cc1 (stereo not given) | 0 | · | -14% | · | 1.1% | 27 | -31%[inhibitor] |
| CCNC(=S)NNC(=S)NCc1ccccc1 | 7 | 56µM* | 9% | -2.0 | -3.3% | 3 | 27% |
| O=C(NCCc1ccc(F)cc1)C(=O)NCC1CCCN1S(=O)(=O)c1cccs1 (stereo not given) | -13 | · | -3% | · | · | 5 | 5%[15.4 µM] |
| OC1CCN(C(c2ccc3ncccc3c2)c2nnnn2C2CCCCC2)CC1 (stereo not given) | 3 | 4% | 4% | -1.1 | 0.1% | 9 | ? |
| O=C(CCCN1C(=O)c2ccccc2C1=O)Nc1c2c(nc3c1CCC3)CCC2 | 2 | 9% | 8% | -0.9 | -1.3% | 0 | 4%[15.4 µM] |
| C=Cn1cc[n+](CC(=O)c2ccc(C)cc2)c1 | 0 | 10% | · | -0.9 | · | -11 | -6%[15.4 µM] |
| NNC(=S)Nc1cccc(-c2n[nH]c(=S)o2)c1 | · | 79µM* | 1% | 4.0 | -28% | 16 | 10µM* |
| COc1ccccc1NC(=S)NCCc1ccccc1 | 1 | -5% | -3% | -0.1 | -1.3% | -33 | 12% |
| COc1ccc2c(c1)c(C(=O)N/N=C/c1ccc(Br)cc1)c(C)n2C | 2 | -15% | -31% | 3.0 | -3.3% | -5 | -4% |
| CCOC(=O)c1ccc(NC(=O)Nc2c(C)nn(C)c2C)cc1 | 3 | 17% | 2% | -2.0 | -0.3% | 18 | -14% |
| CCc1ccc(NC(=O)COc2ccc3c(c2)OCO3)cc1 | 0 | 0% | ? | · | 0.0% | -9 | 14% |
| Cc1cc(C)n(CC2CC(=O)N(c3ccccc3)C2=O)n1 (stereo not given) | · | 10% | 8% | -1.4 | -1.9% | 20 | -30% |
| O=C(O)/C=C\c1cccc(-n2nnnc2SCc2ccccc2F)c1 | 4 | 9% | -35% | 1.4 | 0.3% | 3 | ? |
| COc1c(C)cccc1C(=O)Nc1cc(-c2nn3c(C)nnc3s2)ccc1C | 4 | · | -22% | · | -4.6% | · | -38%[inhibitor] |
| O=C(/C=C/c1cccc([N+](=O)[O-])c1)NCCSCc1cccc(Cl)c1 | -15 | -8% | -15% | -1.0 | 2.8% | 3 | 2% |
| O=S(=O)(Nc1ccccc1N1CCCCC1)c1ccccc1 | 0 | -2% | -7% | · | -1.1% | -6 | 2% |

More structures.
| molecule | CtBP-E1A blk | Sfp inh | gsp antagonist | Menin MLL FP FL | ClpP mod | TRPV1 potentiator | gsp agonist |
| --- | --- | --- | --- | --- | --- | --- | --- |
| CCN1CCN(C(=O)Cn2ncc3ccsc3c2=O)CC1 | 5 | 7% | 0% | 1.1 | 0.2% | -9 | -31%[inhibitor] |
| CCn1c(N2CCN(C(=O)/C=C/c3ccccc3)CC2)nc2ccccc21 | -1 | 5% | -15% | -0.3 | · | -6 | -4% |
| O=[N+]([O-])c1cc(/C=N/O)ccc1SCc1ccccc1 | 0 | 13% | -5% | 0.2 | 1.5% | -23 | -9% |
| CC1CCN(S(=O)(=O)c2ccc(NC(=O)[C@@H]3CCCC[C@@H]3C(=O)O)cc2)CC1 | 2 | 18% | 5% | · | · | 5 | 0% |

The order is random. Share with any hit: about 5.3%.
